Sfp inh: Sfp phosphopantetheinyl transferase inhibition; Q9F4F7; Biochemical Sfp PPTase activity, qHTS; Potency, µM, inactives show max response, negative = inhibition, most hits filed as inhibitors; 3.5% of 310,000 active; active means well fitted inhibition curve with a large enough effect; inconclusive means small, poorly fitted or top-dose-only effect, or another doubt; inactive means no such curve, though single readings can be large or run the other way;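 further: the enzyme is Sfp with the accession as filed and its product quenches rhodamine fluorescence; potency means the concentration at half of the fitted maximal effect; 0% = enzyme reaction without inhibitor and -100% = no enzyme wells; top concentration of the series not given in the record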
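Step 1, compound plus 15 nM Sfp-PPTase, 15 min, room temperature. Step 2, add rhodamine-CoA (5 uM) and BHQ-2-YbbR (12.5 uM). Step 3, read 525/598 nm fluorescence at 0 and 30 min.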
gsp agonist: agonists of gsp mutant (McCune-Albright syndrome). Potency, µM (series often up to 76.9 µM), without a hit: at the highest dose activation (cAMP increase), most hits filed as activators. 0.13% of 340,000 active. AID 624287. gsp mutant cells, cAMP HTRF, 30 min; control for the full effect not named in the record; active = well fitted activation curve with a large enough effect; inconclusive = small, poorly fitted or top-dose-only effect, or another doubt; inactive = no such curve, though single readings can be large or run the other way; cell line not stated here;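 further: phosphodiesterase inhibitor Ro 20-1724 added with compounds to block cAMP breakdown; potency means the concentration at half of the fitted maximal effect; nearly all actives have a fitted effect of over 60% in size; about a fifth of the inactives were tested at one dose only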
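Cells stably selected in G418 were plated at 2000/well, grown 16-24 hr, then given compounds in DMSO with the PDE inhibitor […] (300 uM solution added) for 30 min at 37C; cAMP was read by HTRF.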
gsp antag: antagonizes gsp, the McCune-Albright syndrome mutation; 0.4% of 340,000 active; Potency, µM (doses to about 76.9 µM), without a hit: at the top dose activity change, negative = inhibition, usual class: inhibitors; gsp-mutant cells, cAMP HTRF, 30 min; control for the full effect not named in the record; active = falling curve of any shape with a large fitted effect; inconclusive = falling curve, mostly with a smaller effect; inactive = flat or rising curve; cell line not stated here;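 further: intracellular cAMP measured with PDE inhibitor Ro 20-1724 present during compound exposure; potency means the concentration at half of the fitted maximal effect; on the % scale 0 is the no-effect control and ±100 the full control effect; nearly all actives have a fitted effect of over 65% in size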
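G418-selected cells were plated in DMEM/10% FBS for 16-24 h at 37C, then treated with compounds plus the PDE inhibitor […] (300 uM solution added) for 30 min at 37C. Intracellular cAMP was measured by HTRF after 30 min lysis at room temperature.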
Menin-MLL FL inh: displaces fluorescein MLL peptide from human menin | Fluorescence polarization, fluorescein-MLL peptide displacement from menin | FP activity change, % at 61.4 µM | 290,000 tested, under 10 active | AID 1766; inconclusive = falling polarisation curve, or a change in total fluorescence; inactive = total fluorescence flat and polarisation flat or rising; no compound was filed as active; the % refers to the polarisation; negative = inhibition;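 further: % of control where 0% means no effect; inhibitors lower the polarisation; unlabelled MLL peptide was the positive control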
ClpP mod: qHTS Assay for Activators of ClpP | purified B. subtilis ClpP, FRET peptide cleavage, 20 min | Potency, µM (series often up to 57.5 µM), for inactives: at the top dose activity change, negative = active | 1.9% of 340,000 active; active = well fitted falling curve with a large enough effect; inconclusive = small, poorly fitted or top-dose-only effect; inactive = no such curve, though single readings can be large or run the other way; further: potency means the concentration at half of the fitted maximal effect; the source files actives as falling curves though it sought activators and does not explain the sign; nearly all actives have a fitted effect of over 65% in size; many hits overshoot -100%
Target sequence (P80244 whole entry, looked up): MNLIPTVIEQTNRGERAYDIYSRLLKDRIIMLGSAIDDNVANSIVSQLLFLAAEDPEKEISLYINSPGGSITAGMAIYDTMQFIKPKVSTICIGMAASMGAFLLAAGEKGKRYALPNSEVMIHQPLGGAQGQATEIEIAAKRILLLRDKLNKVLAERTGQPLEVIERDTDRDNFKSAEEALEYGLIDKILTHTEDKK
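Purified B. subtilis ClpP, 10 microg/mL final in Tris/HCl pH8 with KCl, BSA, glycerol and Tween-20, cleaved an Abz/nitrotyrosine-quenched decapeptide. Fluorescence (ex 320, em 430) was read at 0 and 20 min at room temperature. Delta was normalized to 5.8 microM ADEP and DMSO/no-enzyme controls.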
D2 PAM: human D2 receptor positive allosteric modulation. DiscoveRx D2 beta-arrestin cells, luminescence, 90 min; 100% = 57 uM dopamine signal. P14416. 0.23% of 360,000 active. potentiation, % (no concentration beside the values); active = potentiation of 50% or more; inconclusive = 30% to 50%; inactive = 30% or less;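 further: compound concentration not given in the record; tested on top of an EC20 dose of dopamine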
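PathHunter beta-arrestin assay in DiscoveRx D2 cells. Compounds were added with an EC20 of dopamine (50 nM final) for 90 min at 37 deg C. Luminescence was read 1 h after detection reagent, with 57 uM dopamine as the EC100 control.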
TRPV1 potentiator: human TRPV1 potentiation. AID 540277. TRPV1-expressing cells, Fluo-8 calcium influx, capsaicin EC20 potentiation; host cell line not named in the record; control for the full effect not named in the record. Q8NER1. 0.02% of 320,000 active. potentiation, % at 8.33 µM; active means potentiation above 80%; inconclusive means 30% to 80%; inactive means below 30%; further: 0% is about no effect
Target sequence (Q8NER1 whole entry, looked up): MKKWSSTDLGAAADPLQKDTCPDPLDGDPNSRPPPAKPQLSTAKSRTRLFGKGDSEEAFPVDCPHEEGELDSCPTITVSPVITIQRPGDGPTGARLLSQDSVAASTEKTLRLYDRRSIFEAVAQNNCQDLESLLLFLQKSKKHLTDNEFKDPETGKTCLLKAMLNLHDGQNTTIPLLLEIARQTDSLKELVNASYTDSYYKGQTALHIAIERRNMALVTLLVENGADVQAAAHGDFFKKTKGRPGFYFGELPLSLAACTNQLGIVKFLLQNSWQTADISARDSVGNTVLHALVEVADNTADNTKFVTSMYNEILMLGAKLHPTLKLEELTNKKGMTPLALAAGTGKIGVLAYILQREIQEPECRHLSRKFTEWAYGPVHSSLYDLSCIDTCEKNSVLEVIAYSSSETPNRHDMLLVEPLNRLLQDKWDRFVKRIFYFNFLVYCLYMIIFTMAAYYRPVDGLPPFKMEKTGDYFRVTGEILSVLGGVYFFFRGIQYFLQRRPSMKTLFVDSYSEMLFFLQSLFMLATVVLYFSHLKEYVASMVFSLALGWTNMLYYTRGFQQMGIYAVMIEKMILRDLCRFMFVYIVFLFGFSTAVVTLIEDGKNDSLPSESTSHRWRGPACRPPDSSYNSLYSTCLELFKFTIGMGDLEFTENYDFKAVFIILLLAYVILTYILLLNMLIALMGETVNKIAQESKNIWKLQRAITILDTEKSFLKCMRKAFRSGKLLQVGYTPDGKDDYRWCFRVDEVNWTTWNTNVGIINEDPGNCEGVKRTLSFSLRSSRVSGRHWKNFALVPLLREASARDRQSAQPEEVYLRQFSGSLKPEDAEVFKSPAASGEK
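TRPV1-expressing cells were cultured overnight at 35.5C and loaded with Fluo-8 calcium dye for 40 to 90 min at room temperature. After a 10 s baseline, compound was added and calcium influx was read kinetically for 3 min (ex 480/em 520 nm).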
Numbers without * were called inactive; ? = inconclusive; nt = no result given; & = joins results of further samples; [ ] = another dose, or the depositor's remark.

SMILES	Sfp inh	gsp agonist	gsp antag	Menin-MLL FL inh	ClpP mod	D2 PAM	TRPV1 potentiator
Cc1cccc(C(=O)N[C@H](C(=O)Nc2nc3ccc(S(C)(=O)=O)cc3s2)C(C)C)c1	-17%	0%[15.4 µM]	-16%	3.1	0.2%	-10	2
Cc1ccc(C(=O)C2CCN(C(=S)NCCCOC(C)C)CC2)cc1	7%	1%	-6%	-4.3	0.3%	-4	-18
COc1ccc(NC(=O)C(OC)c2ccccc2)cc1Cl (stereo unspecified)	-8%	-56%[inhibitor]	-13%	-0.7	1.2%	3	1
O=C(/C=C/c1ccc(O)cc1)c1ccccc1	-6%	?	-5%	14	nt	-4	-16
CC(O)CNc1ncnc2nc[nH]c12 (stereo unspecified)	17%	-11%	0%	2.1	2.3%	14	7
CCOC(=O)c1ccccc1NC(=O)CSc1nc2ccccc2c(=O)[nH]1	7%	-5%[15.4 µM]	-9%	3.0	nt	-1	5
COc1cc(OC)cc(C(=O)NC2CCN(C(=O)N3c4ccccc4Sc4ccccc43)CC2)c1	-1%	-22%	-11%	0.6	-1.3%	-5	8
COc1ccc(OC)c(S(=O)(=O)NNC(=S)Nc2ccc3c(c2)OCO3)c1	9%	9%[15.4 µM]	3%	?	-2.2%	-2	-11
Cc1ccc(Cn2ncc3c(N4CCN(CC#N)CC4)ncnc32)cc1	-7%	-1%[15.4 µM]	-5%	-3.3	nt	7	-7
CCCCNC(=O)C(=O)N/N=C/c1ccc(C(=O)OC)cc1	20%	-22%	13%	2.7	-2.6%	-8	-1
COc1ccc(-c2c(C(C)=O)c(C)nc3sc4c(=N)n(N)cnc4c23)cc1	2%	6%	25%	5.1	-1.4%	-9	-2
C=CC[N+](C)(C)CCCNC(=O)/C=N/O	-11%	-1%[15.4 µM]	1%	-6.6	1.8%	-8	-8
CC[n+]1c(/C=C/N(C)c2ccccc2)oc2ccc(F)cc21	50µM*	0%[15.4 µM]	3%	?	-1.3%	?	-3
CSc1cccc(NC(=S)N(CCN(C)C)C(C)c2ccncc2)c1 (stereo unspecified)	20%	-31%[inhibitor]	-8%	-0.9	1.4%	-15	9
O=C(CSc1nccc(=O)[nH]1)c1c[nH]c2ccccc12	9%	-3%	5%	1.5	-0.2%	9	0
CC1(C)Cc2c(ccc3ccccc23)C(NNC(=O)c2cccnc2)=N1	21%	8%	6%	0.8	-2.0%	4	-7
CC(C)CC(C(=O)NC1CCCC1)N(Cc1cccs1)C(=O)c1snc(C(N)=O)c1N (stereo unspecified)	13%	0%	1%	-0.1	-8.3%	9	-8
CCCC(=Nc1ccc(N)cc1)C1=C(O)C(C(=O)OC)C(C)(C)CC1=O (stereo unspecified)	-27%	24%	-25%	-1.0	1.1%	?	3
CC1=CN2C(=NC(=O)CC2(C)C(=O)N(CC(=O)NC2CCCC2)Cc2ccc(Cl)cc2)C=C1 (stereo unspecified)	16%	1%[15.4 µM]	nt	2.5	nt	-8	-6
CCOC(=O)c1nnn(-c2nonc2N)c1CN(CC)CC	14%	13%	5%	7.8	?	-8	-4
CCCCn1c(O)c(N=NC(=O)Cn2c(C(F)(F)F)nc3ccccc32)c2ccccc21	-15%	0%[15.4 µM]	2%	2.2	-3.5%	-10	0
COC(=O)c1sc(N)nc1C(C)(C)C	-19%	-36%[inhibitor]	10%	1.3	-1.7%	-19	11
CCOc1cc(C(=O)OCC(=O)Nc2ccc(SC(F)F)cc2)cc(OCC)c1OCC	11%	-1%	-16%	-0.4	-9.3%	-1	?
Cc1ccc(-c2nc(C(=O)NCCCN3CCOCC3)cc3c2[nH]c2ccccc23)cc1	?	nt	?	4.3	4.8%	-80	-5
O=[N+]([O-])c1ccc(-c2cnc(SCc3ccccc3Cl)[nH]2)cc1	10%	-4%	-10%	5.3	-3.7%	-17	-1
SMILES	Sfp inh	gsp agonist	gsp antag	Menin-MLL FL inh	ClpP mod	D2 PAM	TRPV1 potentiator
O=C(O)/C=C/c1cn(Cc2ccccc2)nc1-c1cccs1	8%	15%[15.4 µM]	-26%	-0.1	-0.1%	-9	5
CCN(CC)S(=O)(=O)c1ccc(C(=O)NCCCn2ccnc2)cc1	24%	-2%[15.4 µM]	18%	-12	1.0%	-7	?
CCS(=O)(=O)N1CCN(c2cc3c(cc2[N+](=O)[O-])n(C)c(=O)n3C)CC1	6%	10%[15.4 µM]	nt	3.2	nt	-20	12
COc1cc2c3c(c1OC)C1(C=CC(=O)C=C1)CC3N(C(C)=O)CC2 (stereo unspecified)	11%	14%	0%	1.9	-17%	-6	3
CC1CCCCC12NC(=O)N(CC(=O)NCCc1ccc(F)cc1)C2=O (stereo unspecified)	nt	10%	6%	nt	0.9%	-3	-9
COc1cc(/C=N/Nc2cccc(C)c2)ccc1OC(=O)c1cccs1	5%	16%	10%	4.4	-0.3%	-6	-3
CC(C)CN1C(=O)c2ccc(C(=O)Nc3ccccn3)cc2C1=O	32%[activator]	-11%	22%	7.1	-0.2%	0	-15
CCOC(=O)C1(C(F)(F)F)N=C(C(F)(F)F)Nc2ccc(F)cc21 (stereo unspecified)	16%	-36%	-3%	0.5	-4.3%	2	-14
O=C(Cn1ccc([N+](=O)[O-])n1)N1CCCCCC1	13%	-17%	9%	-0.9	0.9%	-4	-2
CC(=O)N/N=C(\C)c1cccc(NC(=O)c2cccs2)c1	10%	8%	-2%	4.8	-3.2%	3	1
COc1cc(C(=O)OCCCOC(=O)c2cc(OC)c(OC)c(OC)c2)cc(OC)c1OC	16%	15%	1%	1.4	-5.5%	-7	-2
O=C(/C=C/c1cccc([N+](=O)[O-])c1)NCCN1CCOCC1	25%	-33%[inhibitor]	2%	1.2	0.9%	2	nt
CCC1=C(OC(=O)N(CC)CC)N2C(=O)OC(=NCC3CC3)[C@]2(C)[C@H]2C1=CC[C@H]1C(=O)N(CC)C(=O)[C@H]12	29%&4%	nt	7%	2.5&-0.1	-1.1%	-7	4
Cc1ccc(OCC(=O)Nc2ccc(S(=O)(=O)N3CCOCC3)cc2)c([N+](=O)[O-])n1	9%	11%[15.4 µM]	-6%	0.1	nt	0	-1
CC(=O)N1CCN(C(C)=O)c2ccccc21	nt	-64%[inhibitor]	11%	nt	1.4%	-5	nt
O=C(O)c1ccc(NS(=O)(=O)Cc2ccc(Cl)c(Cl)c2)cc1	nt	3%[15.4 µM]	9%	nt	1.2%	7	nt
CC(C)(C)c1ccc(C(=O)C2CC2)cc1	nt	?	nt	nt	-0.1%	-4	nt
Cc1ccc(CNC(=O)C2CCCN(S(=O)(=O)c3c(C)noc3/C=C/N(C)C)C2)cc1 (stereo unspecified)	-14%	?	-20%	-0.3	-1.2%	-11	9
Cc1onc(-c2ccccc2Cl)c1C(=O)N1CCN(Cc2ccc3c(c2)OCO3)CC1	7%	6%	-8%	-0.3	0.4%	-11	2
O=C(NCCn1cc(SCc2ccccc2)c2ccccc21)c1c(F)cccc1F	0%	-11%	?	1.8	-0.7%	-1	-14
O=C1c2ccccc2C(=O)N1Cc1cnc(N2CCN(c3ccccc3)CC2)s1	11%	?	8%	1.3	nt	1	-13
O=C(O)Cc1c[nH]c2ccccc12	nt	nt	3%	nt	-13%	-9	nt
Cc1ccccc1NC(=O)c1cc(=O)c2ccccc2o1	8%	-29%	-6%	6.4	0.6%	-7	-14
COCCn1c(=O)c2cc3c(=O)n(CCOC)c(=O)c3cc2c1=O	20%	11%	5%	2.9	0.5%	4	-4
CCOc1ccccc1CNCCNC(=O)c1nonc1N	-9%	-18%[15.4 µM]	6%	3.8	0.7%	-9	-19
SMILES	Sfp inh	gsp agonist	gsp antag	Menin-MLL FL inh	ClpP mod	D2 PAM	TRPV1 potentiator
Cc1ccsc1/C=N/Nc1cccc(C(=O)O)c1	8%	27%	?	8.1	nt	14	-4
COc1cc(NC(=O)C2=C(N3CCOCC3)/C(=C\c3ccc(N(C)C)cc3)CCC2)cc(OC)c1OC	-20%	9%	17%	?	-2.2%	-9	10
S=C(NCc1ccco1)NCC1CCCO1 (stereo unspecified)	5%	-48%[inhibitor]	11%	0.9	nt	-8	-5
COc1ccc(CC(=O)n2nc(-c3cccnc3)nc2N)cc1	12%	5%	4%	2.5	-4.0%	-7	-1
O=C(Nc1cccnc1)c1cnn2c(C(F)F)cc(C3CC3)nc12	-5%	-24%	3%	-1.3	-3.0%	-18	2
CC1CN(C(=O)CSc2nnc(CNC(=O)c3ccc(S(=O)(=O)N(C)C)cc3)o2)CC(C)O1 (stereo unspecified)	5%	-10%	1%	-4.4	-0.1%	-1	1
Cc1cc(Cl)c2oc(C(=O)N(C)Cc3cc(C)[nH]n3)c(C)c2c1	2%	-47%[inhibitor]	0%	nt	-12%	-4	-1
Cc1ccc(/C=C/C(=O)N2CCN(Cc3ccccc3)CC2)o1	-101%	?	0%	1.1	0.7%	-26	-21
O=C(COC(=O)c1ccccn1)c1ccc([N+](=O)[O-])cc1	?	5%	-1%	-0.3	-0.5%	-2	-4
O=C(CCC1CCN(C(=O)CC2=CCCCC2)CC1)NCc1ccc(F)cc1	nt	-4%	nt	nt	0.4%	-10	nt
O/N=C(\c1ccccc1)C(O)c1ccccc1 (stereo unspecified)	12%	9%[15.4 µM]	10%	nt	nt	2	11
O=C(c1cccc(Cl)c1)N1CCN(C(=O)c2ccco2)CC1	3%	6%	2%	7.0	1.5%	-36	3
O=C(CNc1cccc([N+](=O)[O-])c1)N/N=C/c1ccc([N+](=O)[O-])o1	-8%	-23%	-3%	-0.2	nt	22	-1
O=C(Cn1ncn2c(cc3ccccc32)c1=O)NCCCc1ccccc1	8%	?	8%	nt	3.6%	-8	16
CCOCc1[nH]c(=S)[nH]c(=O)c1Cc1ccc(OCC(C)C)cc1	9%	-10%[15.4 µM]	-9%	2.6	nt	-21	?
NC(=O)CCC(NS(=O)(=O)c1ccc(Cl)cc1)C(=O)NCc1ccccc1 (stereo unspecified)	8%	nt	nt	2.4	nt	nt	-5
CC(C)N(C(=O)[C@H]1C[C@H](CC(=O)NC(C)(C)C)C(=O)N2CCc3c([nH]c4cc(CCC(=O)N(C)C)ccc34)[C@]12C)C(C)C	nt	nt	-4%	nt	-4.2%	-2	nt

Compound activity: PubChem BioAssay, National Center for Advancing Translational Sciences (NCATS)
